Menin MLL FP FL: displaces fluorescein MLL peptide from human menin | Fluorescence polarization, fluorescein-MLL peptide displacement from menin | FP activity change, % at 61.4 µM | 290,000 tested, under 10 active; inconclusive = falling polarisation curve, or a change in total fluorescence; inactive = total fluorescence flat and polarisation flat or rising; no compound was filed as active; the % refers to the polarisation; negative = inhibition;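 further: % of control where 0% means no effect; inhibitors lower the polarisation; unlabelled MLL peptide was the positive control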
gsp antagonist: antagonists of gsp mutant (McCune-Albright syndrome); actives 0.4% (n = 340,000); gsp-mutant cells, cAMP HTRF, 30 min; control for the full effect not named in the record; Potency, µM (top dose mostly 76.9 µM), for the others: at the highest dose activity change, negative = inhibition, most hits filed as inhibitors; active = falling curve of any shape with a large fitted effect; inconclusive = falling curve, mostly with a smaller effect; inactive = flat or rising curve; cell line not stated here;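 further: intracellular cAMP measured with PDE inhibitor Ro 20-1724 present during compound exposure; potency means the concentration at half of the fitted maximal effect; on the % scale 0 is the no-effect control and ±100 the full control effect; nearly all actives have a fitted effect of over 65% in size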
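G418-selected cells were plated in DMEM/10% FBS for 16-24 h at 37C, then treated with compounds plus the PDE inhibitor […] (300 uM solution added) for 30 min at 37C. Intracellular cAMP was measured by HTRF after 30 min lysis at room temperature.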
ClpP mod: qHTS Assay for Activators of ClpP; ATP-dependent Clp protease proteolytic subunit (Bacillus subtilis (strain 168)), P80244; purified B. subtilis ClpP, FRET peptide cleavage, 20 min; Potency, µM (top dose mostly 57.5 µM), for inactives: at the highest dose activity change, negative = active; actives 1.9% (n = 340,000); AID 651965, 2013; active = well fitted falling curve with a large enough effect; inconclusive = small, poorly fitted or top-dose-only effect; inactive = no such curve, though single readings can be large or run the other way; further: potency means the concentration at half of the fitted maximal effect; the source files actives as falling curves though it sought activators and does not explain the sign; nearly all actives have a fitted effect of over 65% in size; many hits overshoot -100%
Target sequence (P80244 whole entry, looked up): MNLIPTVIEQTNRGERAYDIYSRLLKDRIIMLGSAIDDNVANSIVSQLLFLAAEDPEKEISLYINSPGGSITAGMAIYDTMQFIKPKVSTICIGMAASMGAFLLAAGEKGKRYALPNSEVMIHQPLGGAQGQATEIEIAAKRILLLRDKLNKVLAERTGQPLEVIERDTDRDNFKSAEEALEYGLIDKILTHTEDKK
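ClpP 10 microg/mL final, pH 8 Tris/KCl buffer with BSA, glycerol, Tween-20; compound pinned in; FRET-FV substrate; RT 20 min; Ex320/Em430; ΔFRET vs ADEP 5.8 microM, DMSO, no enzyme.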
gsp agonist: activates gsp, the McCune-Albright syndrome mutation; gsp mutant cells, cAMP HTRF, 30 min; control for the full effect not named in the record; Potency, µM (titrated, usually from 76.9 µM), for the others: top-dose activation (cAMP increase), most hits filed as activators; actives 0.13% (n = 340,000); AID 624287; active = well fitted activation curve with a large enough effect; inconclusive = small, poorly fitted or top-dose-only effect, or another doubt; inactive = no such curve, though single readings can be large or run the other way; cell line not stated here;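 further: phosphodiesterase inhibitor Ro 20-1724 added with compounds to block cAMP breakdown; potency means the concentration at half of the fitted maximal effect; nearly all actives have a fitted effect of over 60% in size; about a fifth of the inactives were tested at one dose only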
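Cells stably selected in G418 were plated at 2000/well, grown 16-24 hr, then given compounds in DMSO with the PDE inhibitor […] (300 uM solution added) for 30 min at 37C; cAMP was read by HTRF.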
TRPML1 ag: activates the human TRPML1 channel. actives 0.12% (n = 410,000). TRPML1-expressing cells, Ca2+ dye fluorescence, FDSS; host cell line not named in the record; reference of the full effect not given here. activation, % (no concentration beside the values). AID 624414. Q9GZU1; in the data active = activation above about 50%; inconclusive = about 30% to 50%; inactive = below about 30%; further: 0% is about no effect; the text of the record puts the active cut at 80%
Target sequence (Q9GZU1 whole entry, looked up): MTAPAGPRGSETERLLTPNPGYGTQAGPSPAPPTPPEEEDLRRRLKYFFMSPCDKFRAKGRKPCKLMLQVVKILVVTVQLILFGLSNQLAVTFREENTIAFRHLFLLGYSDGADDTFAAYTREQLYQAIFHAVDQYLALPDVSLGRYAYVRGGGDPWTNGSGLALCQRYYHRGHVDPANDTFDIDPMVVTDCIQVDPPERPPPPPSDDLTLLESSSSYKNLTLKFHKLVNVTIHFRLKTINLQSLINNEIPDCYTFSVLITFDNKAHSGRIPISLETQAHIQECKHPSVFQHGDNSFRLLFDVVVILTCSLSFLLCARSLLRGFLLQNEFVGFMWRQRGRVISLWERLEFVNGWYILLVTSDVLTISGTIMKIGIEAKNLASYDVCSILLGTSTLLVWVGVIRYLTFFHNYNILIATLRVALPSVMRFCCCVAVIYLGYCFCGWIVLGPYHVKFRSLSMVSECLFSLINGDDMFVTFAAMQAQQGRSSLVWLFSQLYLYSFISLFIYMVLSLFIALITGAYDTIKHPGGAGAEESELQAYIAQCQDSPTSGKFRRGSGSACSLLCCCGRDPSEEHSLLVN
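Tet-induced TRPML1-DL cells, 1,500 per well, cultured overnight, were loaded with a no-wash Ca2+ dye for 45–90 min. Calcium fluorescence was recorded on the FDSS for 110 s after compound addition, before the EC80 agonist (4 uM 54-4) was added.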
TRPML1 blocker: human mucolipin-1 channel inhibition | Q9GZU1 | TRPML1-inducible cells, Ca2+ dye fluorescence, FDSS; hits give low values; inhibition of EC80 agonist-evoked calcium signal | activity change, negative = inhibition, % (no concentration beside the values) | AID 624415 | actives 0.02% (n = 390,000); in the data active means activity change below about -50%; inconclusive means about -30% to -50%; inactive means above about -30%;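 further: stimulus is agonist 54-4 at its EC80 concentration; on the % scale 0 is the no-effect control and ±100 the full control effect; compound concentration not given in the record; the text of the record puts the active cut at -80%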
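Calcium fluorescence in TRPML1-DL cells induced overnight with Tet: a 110 s read after compound pin addition, then a 110 s antagonist read after challenge with 54-4 at 4 uM final (EC80).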
* marks the source's active call; other numbers are inactive results; ? = inconclusive; . = no result given; [ ] = another dose, or the depositor's remark. Compounds were not picked by outcome. About 2.1% of those tested had a hit in this group.

SMILES	Menin MLL FP FL	gsp antagonist	ClpP mod	gsp agonist	TRPML1 ag	TRPML1 blocker
Cc1[nH]c(=O)[nH]c(=O)c1S(=O)(=O)NCCOC12CC3CC(CC(C3)C1)C2	4.1	-12%	-1.4%	-25%	-0.9	4
NC(=O)CSc1nnc(NC(=O)c2ccc(Br)o2)s1	.	19%	-1.2%	-1%	5.1	-3
O=C(Nc1ccc(F)c(F)c1)c1oc2ccccc2c1NC(=O)C1CCCO1 (centres undefined)	-4.4	-8%	-5.9%	14%[15.4 µM]	0.8	11
CN(C)CCCNc1oc(-c2ccc(Cl)cc2)nc1C#N	4.5	8%	6.4%	16%	0.3	-12
O=S1(=O)C=CC(Sc2nc3ccccc3[nH]2)C1 (centres undefined)	-0.7	-12%	2.0%	14%	2.1	2
CCn1c(/C=C/c2ccccc2F)nc2ccccc2c1=O	-8.1	-15%	?	15%[15.4 µM]	0.4	12
Cc1cnn(-c2ccc3nnc(-c4ccc(Br)cc4)n3n2)c1	2.9	-22%	-16%	18%	0.4	20
O=C(CN1C(=O)C2(SCC(=O)N2c2cccc(Cl)c2)c2ccccc21)NC1CCCCC1 (centres undefined)	.	.	2.2%	.	1.8	-5
Cc1ccc(C(=O)Nc2ccncc2)cc1[N+](=O)[O-]	-0.4	2%	1.8%	-12%	-0.2	-6
C[C@@H]1CN([C@H](C)CO)C(=O)CCCn2nncc2CO[C@@H]1CN(C)S(=O)(=O)c1cccc(C#N)c1	.	.	-4.6%	?	0.7	30
CCC(=O)c1ccc(OCCn2cnc3ccccc32)cc1	1.1	5%	0.6%	4%[15.4 µM]	-0.3	-22
COc1ccc(CCNC(=O)C(=O)NCc2ccc(C)cc2)cc1OC	0.3	11%	-0.5%	8%	0.6	-13
Cc1ccc(NC(=O)[C@@H]2CCC(=O)N2C2OC(=O)c3ccccc32)cc1Cl (some centres undefined)	0.8	3%	-0.8%	.	.	.
COc1ccc(CNc2nc(NCc3ccc(OC)cc3)n(C(=O)c3ccncc3)n2)cc1	0.8	4%	-3.0%	-17%	0.8	84
NC(=O)c1nsc(C(=O)N(Cc2ccco2)C(C(=O)NCc2ccc(F)cc2)c2ccc(O)cc2)c1N (centres undefined)	3.4	-14%	.	-11%[15.4 µM]	0.1	2
CC1CCN(C2CCN(C(=O)c3ccccc3F)CC2)CC1	-2.0	-7%	.	1%[15.4 µM]	-0.1	5
CCOc1ccccc1NC(=O)CN1C(=O)COc2ccc(C)cc21	0.2	-7%	-1.1%	16%[15.4 µM]	-0.4	1
COC(=O)CCNc1n[nH]c(=O)[nH]c1=O	2.2	9%	.	7%	1.8	6
CCCCN(CC)Cc1ccc(CNC(=O)Nc2ccc(OCC)cc2)o1	6.2	1%	0.8%	?	3.4	28
Cc1cc(F)c(F)c(C(=O)N2CCN(C)CC2)c1Cl	0.8	13%	-1.6%	-18%	0.5	-1

Compound profiles, as listed above. Values in the order: Menin MLL FP FL, gsp antagonist, ClpP mod, gsp agonist, TRPML1 ag, TRPML1 blocker
Listed for `Cc1[nH]c(=O)[nH]c(=O)c1S(=O)(=O)NCCOC12CC3CC(CC(C3)C1)C2` = 4.1, -12%, -1.4%, -25%, -0.9, 4
Listed for `CCOc1ccccc1NC(=O)CN1C(=O)COc2ccc(C)cc21` = 0.2, -7%, -1.1%, 16%[15.4 µM], -0.4, 1
Listed for `CCn1c(/C=C/c2ccccc2F)nc2ccccc2c1=O` = -8.1, -15%, ?, 15%[15.4 µM], 0.4, 12
Listed for `CCCCN(CC)Cc1ccc(CNC(=O)Nc2ccc(OCC)cc2)o1` = 6.2, 1%, 0.8%, ?, 3.4, 28

New compounds follow.
SMILES	Menin MLL FP FL	gsp antagonist	ClpP mod	gsp agonist	TRPML1 ag	TRPML1 blocker
Cc1ccc(N2CC(C(=O)Nc3cc(C)on3)CC2=O)cc1 (centres undefined)	1.1	4%	1.0%	3%	-0.1	18
COC(=O)C1C2CC(=O)C(C2)C1C(=O)OC (centres undefined)	.	10%	0.6%	-19%	0.6	-12
Cc1cc(C)nc(NC(=NCCc2c[nH]c3ccccc23)NC(=O)C(C)(C)C)n1	0.4	?	.	-20%[15.4 µM]	2.5	30
COc1ccc(C2C=C(C34CC5CC(CC(C5)C3)C4)NC(=S)N2)cc1 (centres undefined)	5.1	3%	-2.7%	0%	1.6	-6
O=C(O)CCC(=O)Nc1ccc(NC(=O)c2ccc(Cl)cc2Cl)c(Cl)c1	-0.5	10%	.	-5%[15.4 µM]	1.3	2
CC1CC(=O)Nc2ccccc2N1C(=O)CN1C(=O)C(=O)N(C)C1=O (centres undefined)	.	3%	.	-17%	-0.2	0
COC(=O)c1cn(NC(=O)CCC2CCCC2)c(=O)c2ccccc12	-1.4	-9%	-3.5%	16%	0.1	-9
Cc1ccc(C)n1CCN1CCN(CC(=O)Nc2ccc(S(N)(=O)=O)cc2)CC1	3.7	8%	-2.7%	4%	-0.5	20
COc1ccc(-c2noc(C3CCCN(C(=O)c4ccccc4OC)C3)n2)cc1 (centres undefined)	2.3	?	.	11%	3.2	-10
COC(=O)CCC(=O)c1oc2ccc(OC)cc2c1N	2.8	22%	?	30%	0.0	-11
Cc1cccc(N2CCN(C(=O)CCCn3c(=O)[nH]c4ccsc4c3=O)CC2)c1C	.	.	1.4%	.	-0.9	2
COC(=O)NCC(c1ccco1)N1CCN(c2ccccc2)CC1 (centres undefined)	-4.7	-3%	-0.1%	26%	.	.
COc1ccccc1NC(=O)Nc1ccnn1C1CCN(C(=O)c2cccnc2)CC1	.	9%	0.3%	-5%	0.7	17
CC(=O)c1ccc(C(=O)N2CCCC(C(=O)c3ccc(Cl)cc3)C2)s1 (centres undefined)	.	-21%	-1.8%	22%	1.3	31
Cc1ccc2cn[nH]c2c1NC(=S)NC(=O)c1ccccc1	7.9	-2%	-1.1%	-26%	-1.0	7
CSc1ccccc1C(=O)OCC(=O)N1CCCC1=O	.	5%	-2.6%	14%	-0.1	-8
CCOC(=O)N1CCN(c2c(NCCN3CCN(c4ccccc4F)CC3)c(=O)c2=O)CC1	4.4	8%	.	4%[15.4 µM]	0.8	1
Cc1cc(NC(=O)CCC(=O)N(c2cccc(F)c2)C(C(=O)NC2CCCC2)c2ccc(C)o2)no1 (centres undefined)	2.3	-30%	28µM*	16%[15.4 µM]	-1.0	-20
CCOC(=O)C1CCN(C(=O)NS(=O)(=O)c2ccc(C)cc2)CC1	0.0	2%	.	1%	1.5	16
COC(=O)c1cc(-c2ccc(C)o2)nc2ccccc12	-1.2	3%	-1.3%	27%	3.0	-13
NS(=O)(=O)c1ccc(CCNC(=O)NC2CCCCC2)cc1	-0.6	9%	-0.1%	-47%[inhibitor]	.	.
COc1ccccc1OCCC(=O)OCC(=O)Nc1cccc(Br)c1	1.2	-9%	?	-9%[15.4 µM]	-0.4	19
Cc1ccc(C(=O)Nc2ccc(NC(=O)c3cccs3)cc2)cc1C	.	.	1.4%	.	0.4	-2
Cc1nc2ncnn2c(Nc2ccc3c(c2)OCCO3)c1C	.	2%	-0.1%	26%	0.0	-8
COc1ccc(NC(=O)CN(C)S(=O)(=O)c2cccc3nsnc23)cc1OC	0.2	3%	-1.7%	-35%[inhibitor]	1.4	2
O=C(O)Cn1cc(C(=O)c2ccco2)c2ccccc21	0.3	-13%	-1.5%	18%	-0.7	-3
Nc1c(C(=O)NCc2ccc3c(c2)OCO3)nnn1Cc1cccc(F)c1	3.6	9%	.	13%	0.3	-4
C/C(=N\NC(=O)c1ccccc1C)c1ccc(NC(=O)c2cccs2)cc1	0.4	-19%	4.8%	-21%	0.1	-22
COc1cc(C(=O)Nc2nc3c(s2)Cc2c(Br)ccc(OC)c2-3)cc(OC)c1OC	.	.	-3.4%	.	0.9	3
COc1ccc(-c2oc3ccccc3c2C#CC(C)(C)O)cc1	.	-15%	4.7%	-18%	0.6	20
O=C(COC(=O)C1CCN(/C=C/C(=O)C(F)(F)F)CC1)Nc1cccc(F)c1	-0.5	0%	0.9%	18%[15.4 µM]	0.1	-5
COc1ccc(N2C(=O)CSC2c2ccc3c(c2)OCO3)cc1 (centres undefined)	1.9	-10%	-1.7%	21%	0.9	21
Cc1ccc(C)c(S(=O)(=O)Nc2ccc3oc(C)c(C(=O)O)c3c2)c1	-0.1	-9%	.	-23%	1.1	9
Cn1c(=O)c2c(nc(N3CCCCC3)n2CCSc2nc3ccccc3s2)n(C)c1=O	0.1	-7%	-4.4%	-2%	1.0	-13
CC1CC(C)CN(S(=O)(=O)c2ccc(NC(=O)C3CC(=O)N(Cc4ccccc4)C3)cc2)C1 (centres undefined)	.	-14%	-1.3%	-37%[inhibitor]	0.4	5
COc1ccccc1C1C2CCCCC2(O)CCN1CC(=O)Nc1ccccc1 (centres undefined)	4.4	-4%	0.1%	-12%	1.3	-22
O=C(CCCN1C(=O)/C(=C\c2ccco2)SC1=S)Nc1cccc2ccccc12	?	11%	2.1%	6%	-0.2	-17
COc1cc(SC)ccc1C(=O)Nc1cccc(S(=O)(=O)NC2=NCCCCC2)c1	.	?	-3.6%	-3%[15.4 µM]	-0.3	27
CCCCc1cc(=O)oc2c(C)c(OCC(=O)N3CCC(C(=O)O)(c4ccccc4)CC3)ccc12	0.3	?	4.5%	.	.	.
O=C(O)C1[C@H]2C(=O)N(Cc3cccs3)C[C@]23C=C[C@H]1O3 (some centres undefined)	-1.7	4%	0.7%	-36%[inhibitor]	-0.2	1
COc1ccccc1N1CCN(C(=O)c2cc(-c3ccc(Cl)c(Cl)c3)on2)CC1	0.0	-14%	1.2%	-2%	0.1	-5
C=CCn1c(-c2sc3nc(C)cc(C)c3c2N)n[nH]c1=S	0.4	-6%	.	?	0.6	7
COc1ccc(C(=O)CSc2nnc(CNC(=O)c3ccc(OC)cc3)n2C)cc1	4.0	2%	-0.4%	-27%	-0.3	-8
COC(=O)c1ccc2c(=O)n(-c3ccccc3)c(SCN3C(=O)c4ccccc4C3=O)nc2c1	6.1	-2%	-4.2%	-5%	0.4	23
O=c1c(Cl)c(N2CCN(c3ccccc3)CC2)cnn1C12CC3CC(CC(C3)C1)C2	0.7	?	0.2%	-13%	-0.1	-5
O=C(NCc1ccco1)/C(=C\c1ccco1)NC(=O)c1ccccc1Cl	13	-1%	.	5%[15.4 µM]	-1.0	-4
Cc1ccc(N/C=C/C(=O)c2ccco2)c(O)c1	19	-3%	1.3%	16%	0.6	6
O=C(Nc1ccccc1)c1ccc(CN2CCC(Cc3ccccc3)CC2)cc1	.	10%	3.7%	26%	-0.4	6
O=S(=O)(Nc1ccccc1C(F)(F)F)c1ccc(-c2ccccn2)s1	0.6	-1%	0.9%	?	0.4	18
Cc1ccc(NC(=O)CC2S/C(=N/c3nccs3)N(C)C2=O)cc1C (centres undefined)	-2.5	-1%	0.6%	7%	-1.1	8

Source: PubChem BioAssay (National Center for Advancing Translational Sciences (NCATS))
